Screening results: PubChem BioAssay, Broad Institute
Vaccinia inh: Vaccinia orthopox stage-specific inhibition | 89,000 tested, 0.01% active | Vaccinia-infected cells, mCherry/Venus stage reporter fluorescence; hits give low values; some inactives read as strong as hits | activity change (mCherry), % (no concentration beside the values);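 active = mCherry past -33% and 40 or more points under the early reporter, replicates agreeing; inconclusive = past -33% without that gap or agreement; tested in A549 cells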;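 also: scaled between vehicle wells and reference inhibitor wells; 23 nL library stock went into each well; one replicate is shown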
Vaccinia inh Venus: further read-out of Vaccinia inh, marked with its call; activity change (Venus), %; measured here: Venus reporter, other viral stage;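 negative = less Venus signal; first of two replicates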
* = called active by the depositor; ? = inconclusive; nt = no result given. These rows are one share of the data; rates above refer to the full screens.

Below each SMILES – Vaccinia inh, Vaccinia inh Venus
O=C(c1ccc(F)cc1)N1CC(=O)N2[C@@H](CO)[C@H](c3ccc(-c4cccnc4)cc3)[C@@H]2C1
 : 40, 9
CC(C)C#Cc1ccc([C@@H]2[C@H]3CN(C(=O)NC4CCCC4)CC(=O)N3[C@H]2CO)cc1
 : -17, -9
CC(C)c1cn(CC[C@@H]2CC[C@@H](NS(=O)(=O)Cc3ccccc3)[C@H](CO)O2)nn1
 : 8, 26
CCCNC(=O)N1CC2(CCN(C(=O)CCC)CC2)c2c(n(C)c3cc(OC)ccc23)[C@H]1CO
 : 18, 6
C[C@@H]1CCCCO[C@@H](CN(C)Cc2ccncc2)[C@H](C)CN([C@@H](C)CO)C(=O)c2cc(NS(=O)(=O)c3ccc(Cl)cc3)ccc2O1
 : -17, -15
C[C@H]1CN([C@@H](C)CO)C(=O)c2cc(NC(=O)Nc3ccc(C(F)(F)F)cc3)ccc2O[C@H]1CN(C)Cc1ccc(C(F)(F)F)cc1
 : ?, nt
COc1ccc(S(=O)(=O)Nc2ccc3c(c2)C(=O)N([C@H](C)CO)C[C@@H](C)[C@H](CN(C)S(=O)(=O)c2c(C)noc2C)OCCCC[C@H](C)O3)cc1
 : ?, nt
COc1cccc(NC(=O)Nc2ccc3c(c2)C(=O)N(C)C[C@H](OC)[C@H](C)CN(CC2CC2)[C@@H](C)CO3)c1
 : -13, -4
O=C(Nc1ccccc1F)N[C@H]1CC[C@H](CCNS(=O)(=O)c2ccc(Cl)cc2)O[C@H]1CO
 : -27, -19
COc1ccc(S(=O)(=O)N[C@H]2C=C[C@H](CC(=O)N3CCc4ccccc4C3)O[C@H]2CO)cc1
 : -18, -10
Cc1ccccc1S(=O)(=O)N(C)C[C@H]1OCc2ccccc2-c2ccccc2C(=O)N([C@H](C)CO)C[C@H]1C
 : -23, -18
O=C(CC1CC1)N1CC(=O)N2[C@@H](CO)[C@H](c3ccc(C#Cc4ccccc4)cc3)[C@@H]2C1
 : 10, -3
C[C@@H]1CN([C@@H](C)CO)S(=O)(=O)c2ccc(-c3cccnc3)cc2O[C@H]1CN(C)C(=O)CN(C)C
 : 6, -1
COc1ccccc1S(=O)(=O)N[C@H]1CC[C@@H](CCn2cc(C3CCCC3)nn2)O[C@@H]1CO
 : 9, 1
COc1ccc2c3c(n(C)c2c1)[C@@H](CO)N(CC1CCCCC1)CC31CCN(C(=O)CN(C)C)CC1
 : -9, -8
C[C@@H](O)C#Cc1ccc([C@H]2[C@@H](CO)N3CCCCN(CC4CC4)C[C@@H]23)cc1
 : 6, -3
O=C(c1cnccn1)N1C[C@H]2[C@@H](c3ccccc31)[C@H](CO)N2C(=O)CC1CC1
 : -6, -15
CC(C)NC(=O)Nc1ccc2c(c1)C(=O)N([C@@H](C)CO)C[C@H](C)[C@H](CN(C)S(=O)(=O)c1ccc(Cl)cc1)OCCCC[C@H](C)O2
 : ?, nt
CO[C@@H]1CN(C)C(=O)c2cc(NC(=O)NC(C)C)ccc2OC[C@H](C)N(C(=O)CC2CC2)C[C@H]1C
 : 1, 2
O=S(=O)(c1ccccc1)N1C[C@@H]2N[C@H](C1)C2c1ccc(-c2ccccc2)cc1 (stereo not given in full)
 : 7, 6

Next section; it opens with the two that closed the last part.
Below each SMILES – Vaccinia inh, Vaccinia inh Venus
CO[C@@H]1CN(C)C(=O)c2cc(NC(=O)NC(C)C)ccc2OC[C@H](C)N(C(=O)CC2CC2)C[C@H]1C
 : 1, 2
O=S(=O)(c1ccccc1)N1C[C@@H]2N[C@H](C1)C2c1ccc(-c2ccccc2)cc1 (stereo not given in full)
 : 7, 6
Cc1noc(C)c1NC(=O)N[C@@H]1CC[C@H](CC(=O)N2CCN(C)CC2)O[C@@H]1CO
 : -2, 7
C[C@@H]1CN([C@@H](C)CO)C(=O)c2cc(NC(=O)CCCCCC(=O)Nc3ccccc3N)ccc2O[C@@H]1CN(C)C(=O)Nc1ccc(F)cc1
 : 12, 15
Cc1noc(C)c1S(=O)(=O)Nc1ccc2c(c1)CC(=O)N([C@H](C)CO)C[C@@H](C)[C@H](CN(C)Cc1ccc(-c3ccccc3)cc1)O2
 : -29, -25
COCC(=O)N1C[C@H](C)[C@H](OC)CN(C)C(=O)c2ccc(NC(=O)Nc3ccccc3)cc2OC[C@@H]1C
 : 19, 7
C[C@@H]1CN([C@H](C)CO)C(=O)CCCn2cc(nn2)CO[C@H]1CN(C)Cc1ccc(O)cc1
 : 8, 4
Cc1ccc(S(=O)(=O)N(C)C[C@H]2OCCCC[C@H](C)Oc3ccc(N(C)C)cc3C(=O)N([C@@H](C)CO)C[C@@H]2C)cc1
 : -32, -31
C/C=C/c1ccc2c(c1)O[C@@H](CN(C)CC1CCCCC1)[C@@H](C)CN([C@@H](C)CO)S2(=O)=O
 : -28, -22
COCC(=O)Nc1ccc2c(c1)C(=O)N(C)C[C@@H](OC)[C@H](C)CN(Cc1ccccc1OC)[C@@H](C)CO2
 : 6, -1
O=C(C[C@H]1CC[C@H]2NC[C@H](O)COC[C@@H]2O1)NCCN1CCCCC1
 : 9, 5
COc1ccccc1CNC(=O)C[C@@H]1CC[C@@H](NC(C)=O)[C@H](CO)O1
 : 10, 7
COc1ccc(S(=O)(=O)Nc2ccc3c(c2)C(=O)N([C@H](C)CO)C[C@@H](C)[C@@H](CN(C)S(=O)(=O)c2cccs2)OCCCC[C@H](C)O3)cc1
 : -18, 6
Cc1ccc(S(=O)(=O)N[C@@H]2CC[C@@H](CC(=O)NCCN3CCCCC3)O[C@@H]2CO)cc1
 : 6, -1
Cc1ccccc1-c1ccc2c(c1)O[C@H](CN(C)C(=O)Nc1ccccc1)[C@@H](C)CN([C@H](C)CO)S2(=O)=O
 : -30, -14
CC=Cc1ccc2n(c1=O)C[C@@H]1[C@@H](CO)[C@H](C(=O)NCC)[C@H]2N1C(=O)c1ccc(F)cc1 (mixture of isomers)
 : 11, 14
C[C@@H]1CN([C@@H](C)CO)S(=O)(=O)c2ccc(C3=CCCC3)cc2O[C@@H]1CN(C)C(=O)Cc1ccncc1
 : 10, 7
CN1[C@@H]2Cn3c(ccc(C4=CCCC4)c3=O)[C@H]1[C@@H](C(=O)N1CCCCC1)[C@@H]2CO
 : 19, 8
CCCC(=O)Nc1ccc2c(c1)C(=O)N(C)C[C@@H](OC)[C@H](C)CN(S(=O)(=O)c1cn(C)cn1)[C@H](C)CO2
 : 9, 6
COc1ccc(NC(=O)N(C)C[C@H]2Oc3ccc(NS(=O)(=O)c4cn(C)cn4)cc3CC(=O)N([C@@H](C)CO)C[C@H]2C)cc1
 : 39, 24
COc1ccc(CN(C)C[C@@H]2Oc3c(NS(C)(=O)=O)cccc3C(=O)N([C@@H](C)CO)C[C@H]2C)cc1
 : 7, 10
COCCNC(=O)C[C@H]1CC[C@H]2[C@@H](COc3ccc(NC(=O)c4ccno4)cc3C(=O)N2C)O1
 : 17, 5

Look-ups from the entries so far.
C[C@@H]1CN([C@H](C)CO)C(=O)CCCn2cc(nn2)CO[C@H]1CN(C)Cc1ccc(O)cc1 in Vaccinia inh Venus = 4
COc1ccc(NC(=O)N(C)C[C@H]2Oc3ccc(NS(=O)(=O)c4cn(C)cn4)cc3CC(=O)N([C@@H](C)CO)C[C@H]2C)cc1 in Vaccinia inh = 39

Structures listed so far that have two or more sulfur atoms (2):
Below each SMILES – Vaccinia inh, Vaccinia inh Venus
COc1ccc(S(=O)(=O)Nc2ccc3c(c2)C(=O)N([C@H](C)CO)C[C@@H](C)[C@H](CN(C)S(=O)(=O)c2c(C)noc2C)OCCCC[C@H](C)O3)cc1
 : ?, nt
COc1ccc(S(=O)(=O)Nc2ccc3c(c2)C(=O)N([C@H](C)CO)C[C@@H](C)[C@@H](CN(C)S(=O)(=O)c2cccs2)OCCCC[C@H](C)O3)cc1
 : -18, 6

Next part:
Below each SMILES – Vaccinia inh, Vaccinia inh Venus
COCC(=O)Nc1ccc2c(c1)[C@@H]1C[C@@H](CC(=O)NCc3ccccn3)O[C@H](CO)[C@@H]1O2
 : -1, -7
C[C@@H]1CN([C@@H](C)CO)C(=O)c2cccc(NS(=O)(=O)c3cn(C)cn3)c2O[C@H]1CN(C)Cc1ccc(C(=O)O)cc1
 : 28, 22
C[C@@H]1CN([C@H](C)CO)C(=O)c2cc(C#CCN(C)C)cnc2O[C@H]1CN(C)Cc1ccncc1
 : 15, 7
C[C@@H]1CN([C@@H](C)CO)C(=O)Cc2cc(NC(=O)Cc3ccccc3)ccc2O[C@@H]1CN(C)C(=O)Nc1ccc2c(c1)OCO2
 : 3, 1
COc1ccc(S(=O)(=O)N(C)C[C@@H]2Oc3ccc(NS(=O)(=O)c4ccccc4)cc3CC(=O)N([C@@H](C)CO)C[C@H]2C)cc1
 : 12, 4
O=C(C[C@@H]1CC[C@@H]2[C@H](COC[C@@H](O)CN2S(=O)(=O)c2cccc(F)c2)O1)NCCCN1CCOCC1
 : 9, 9
CC(=O)N(C)C[C@@H]1Oc2cc(C#CCN(C)C)ccc2S(=O)(=O)N([C@H](C)CO)C[C@H]1C
 : 25, 15
Cc1ccc(-c2ccc3c(c2)O[C@H](CN(C)C(=O)Nc2ccccc2)[C@H](C)CN([C@@H](C)CO)S3(=O)=O)cc1
 : ?, nt
CC(C)CC#Cc1cnc2c(c1)C(=O)N([C@@H](C)CO)C[C@H](C)[C@H](CN(C)Cc1ccc(C(=O)O)cc1)O2
 : 14, 6
C[C@@H]1CN([C@@H](C)CO)C(=O)c2cc(C#CCc3ccccc3)cnc2O[C@H]1CN(C)Cc1cccnc1
 : 15, 10
O=C(C[C@H]1C[C@H]2c3cc(NC(=O)Nc4ccccc4)ccc3O[C@H]2[C@@H](CO)O1)NCc1cccc(F)c1
 : 16, 15
CCC(=O)Nc1ccc2c(c1)C(=O)N(C)[C@H]1CC[C@H](CC(=O)NCC3CCCCC3)O[C@H]1CO2
 : 2, 2
O=C(C[C@H]1C[C@H]2c3cc(NS(=O)(=O)c4ccc(F)cc4)ccc3O[C@H]2[C@H](CO)O1)N1CCOCC1
 : 5, 2
COc1ccccc1CN1[C@@H]2Cn3c(cccc3=O)[C@H]1[C@@H](C(=O)N1CCc3ccccc3C1)[C@@H]2CO
 : 11, 17
COC(=O)C[C@H]1CC[C@@H]2[C@H](COc3ccc(NS(=O)(=O)c4ccccc4Cl)cc3C(=O)N2C)O1
 : 14, 13
Cc1noc(C)c1S(=O)(=O)N(C)C[C@H]1Oc2ccc(NS(=O)(=O)c3ccccc3)cc2CC(=O)N([C@H](C)CO)C[C@H]1C
 : -1, 2
C[C@@H]1CCCCO[C@H](CN(C)C(=O)Nc2ccc(F)cc2)[C@H](C)CN([C@H](C)CO)C(=O)c2cc(NC(=O)c3ccccc3)ccc2O1
 : -16, -8
COc1cccc(-c2ccc([C@H]3[C@H](CO)N4C(=O)CN(C(=O)c5ccncc5)C[C@@H]34)cc2)c1
 : 21, 19
C[C@H](CO)N1C[C@H](C)[C@@H](CN(C)S(=O)(=O)c2ccc(F)cc2)Oc2ccc(NC(=O)Nc3cccc4ccccc34)cc2CC1=O
 : 5, 10
CC(=O)N(C)C[C@@H]1Oc2cc(-c3ccccc3)ccc2S(=O)(=O)N([C@@H](C)CO)C[C@H]1C
 : 6, -7
C[C@@H]1CN([C@H](C)CO)C(=O)c2cc(NC(=O)Nc3ccccc3)ccc2O[C@@H]1CN(C)CC1CCCCC1
 : 2, 0
C[C@H]1CN([C@@H](C)CO)S(=O)(=O)c2ccc(C3=CCCC3)cc2O[C@@H]1CN(C)C(=O)c1ccc(F)cc1
 : 9, 2
CCCC#Cc1ccc2c(c1)O[C@H](CN(C)CC1CCOCC1)[C@H](C)CN([C@@H](C)CO)S2(=O)=O
 : -14, -25
C[C@H](CO)N1C[C@H](C)[C@@H](CN(C)C)Oc2ccc(NS(C)(=O)=O)cc2C1=O
 : 19, 4
CC(=O)N1C[C@H]2[C@@H](c3ccccc31)[C@H](CO)N2C(=O)c1ccc(F)cc1
 : 11, 1
COCC(=O)Nc1ccc2c(c1)C(=O)N(C)[C@@H]1CC[C@@H](CC(=O)NCc3ccccc3)O[C@H]1CO2
 : 0, 8
CN(C)C(=O)C[C@H]1C[C@H]2c3cc(NC(=O)NC4CCCC4)ccc3O[C@H]2[C@@H](CO)O1
 : 6, 23
COc1ccc(NC(=O)Nc2ccc3c(c2)C(=O)N([C@H](C)CO)C[C@H](C)[C@H](CN(C)S(=O)(=O)c2ccc(F)cc2)OCCCC[C@@H](C)O3)cc1
 : 9, 4
CO[C@@H](CN(C)CC1CCOCC1)[C@H](C)CN(C(=O)Nc1ccc(F)cc1)[C@H](C)CO
 : 23, 23
CCS(=O)(=O)Nc1ccc2c(c1)C(=O)N(C)[C@H]1CC[C@@H](CC(=O)NC3CCCCC3)O[C@H]1CO2
 : 16, 19
Cc1noc(C)c1NC(=O)N(C)C[C@H]1Oc2c(NS(=O)(=O)c3cn(C)cn3)cccc2C(=O)N([C@H](C)CO)C[C@@H]1C
 : 10, 3
C[C@H](CO)N1C[C@H](C)[C@H](CN(C)C(=O)Nc2cccc3ccccc23)OCCCC[C@H](C)Oc2ccc(NC(=O)Nc3cccc4ccccc34)cc2C1=O
 : 49, 21
COc1ccc(C#Cc2ccc3c(c2)[C@@H]2[C@@H](CCN2C(=O)C2CC2)[C@H](CO)N3)cc1
 : 5, 8
C[C@@H]1CN([C@@H](C)CO)C(=O)c2cccc(NC(=O)C3CC3)c2O[C@@H]1CN(C)C(=O)Nc1cccc2ccccc12
 : 19, 11
C[C@H]1CN([C@@H](C)CO)S(=O)(=O)c2ccc(C#CCN(C)C)cc2O[C@@H]1CN(C)C(=O)C1CCC1
 : 5, 10

Laid out differently: 2 of the compounds above.
mol	Vaccinia inh	Vaccinia inh Venus
COCC(=O)Nc1ccc2c(c1)C(=O)N(C)[C@@H]1CC[C@@H](CC(=O)NCc3ccccc3)O[C@H]1CO2	0	8
CN(C)C(=O)C[C@H]1C[C@H]2c3cc(NC(=O)NC4CCCC4)ccc3O[C@H]2[C@@H](CO)O1	6	23
